GIV-Gai inh: GIV-Galpha-i interaction inhibition; Galpha-i3/FITC-GIV peptide fluorescence polarization, 90 min; active compounds read low; scaled: aluminum fluoride 0%, vehicle 100%; percent of control (FP), % (no concentration beside the values); P08753; AID 1224905; hit rate 0.42% among 210,000;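 active means replicate mean at 85% of control or lower, very high polarization wells dropped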;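 further: wells of about 15 µL received 100 nL stock; the first replicate is given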
Target sequence (P08753 whole entry, looked up): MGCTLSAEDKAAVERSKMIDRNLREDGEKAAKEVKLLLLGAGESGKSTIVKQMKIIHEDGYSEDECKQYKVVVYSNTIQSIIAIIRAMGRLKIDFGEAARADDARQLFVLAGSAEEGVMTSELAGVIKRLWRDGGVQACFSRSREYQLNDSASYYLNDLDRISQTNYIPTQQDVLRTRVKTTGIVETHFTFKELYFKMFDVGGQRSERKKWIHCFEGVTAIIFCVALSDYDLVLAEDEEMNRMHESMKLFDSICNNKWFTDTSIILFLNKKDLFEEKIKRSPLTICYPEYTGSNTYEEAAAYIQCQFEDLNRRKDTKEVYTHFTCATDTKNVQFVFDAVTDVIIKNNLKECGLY
An asterisk follows results filed as active. This is a subset (hit frequency here may not be typical).

smiles | GIV-Gai inh
Cc1nc(-c2cc(S(=O)(=O)N3CCN(c4cccc(Cl)c4)CC3)c(C)s2)cs1 | 111
CC1(C)Cc2nc(NC(=S)Nc3ccccc3)c(C(=O)O)cc2CO1 | 104
COc1cc(C2C3=C(CC(C)(C)CC3=O)OC3=C2C(=O)CC(C)(C)C3)ccc1OCc1ccccc1Cl | 104
CC(C)c1csc(-c2csc(S(=O)(=O)NCc3ccccc3Cl)c2)n1 | 101
CCOC(=O)C(NC(=O)Cn1nc(C(F)(F)F)c(Br)c1C)C(=O)OCC | 109
Cc1ccc(C)c2c1NS(=O)(=O)c1ccccc1-2 | 114
CNc1oc(C)nc1S(=O)(=O)c1ccc(C)cc1 | 105
Cn1c(=O)cc(NCc2ccccc2)[nH]c1=O | 110

Copied from the list:
CC(C)c1csc(-c2csc(S(=O)(=O)NCc3ccccc3Cl)c2)n1 in GIV-Gai inh = 101
COc1cc(C2C3=C(CC(C)(C)CC3=O)OC3=C2C(=O)CC(C)(C)C3)ccc1OCc1ccccc1Cl in GIV-Gai inh = 104
Cn1c(=O)cc(NCc2ccccc2)[nH]c1=O in GIV-Gai inh = 110
Cc1nc(-c2cc(S(=O)(=O)N3CCN(c4cccc(Cl)c4)CC3)c(C)s2)cs1 in GIV-Gai inh = 111
CC1(C)Cc2nc(NC(=S)Nc3ccccc3)c(C(=O)O)cc2CO1 in GIV-Gai inh = 104

Going on with the list.
smiles | GIV-Gai inh
CCN1c2ccccc2C(=O)NC12CCN(C(=O)Nc1ccc3c(c1)OCCO3)CC2 | 96
CCN1CCc2c(sc(NC(=O)c3ccc(Cl)cc3)c2-c2nc3ccccc3s2)C1 | -3.2*
Cc1cc(C)cc(-n2ncc3c(N4CCCC4)ncnc32)c1 | 106
Cc1cc(=O)[nH]c(N2CCC(C(N)=O)(N3CCCCC3)CC2)n1 | 101
Cc1ccc(N2C(=O)C3C(c4ccccc4Cl)OC4(C(=O)c5ccccc5C4=O)C3C2=O)cc1C (stereo not drawn) | 101
CC(C)(C)C(=O)C1C(c2cccc3ccccc23)C(C#N)(C#N)C2c3ccccc3C=CN12 (stereo not drawn) | 111
O=C1N=C(N2CCN(c3ccccc3)CC2)S/C1=C/c1ccc(O)cc1 | 116
COC(=O)C1=C(C(=O)OC)SC2(S1)C(C(=O)OC)=C(C(=O)OC)SC1=C2c2cccc(OC)c2N(C(=O)c2ccc(F)cc2)C1(C)C | 105
CCCCCNC(=O)c1cc(S(=O)(=O)N2CCOCC2)ccc1SCc1cccc(OC)c1OC | 117
Cc1ccc(N/C(SCc2cccc([N+](=O)[O-])c2)=C(/C#N)C(N)=O)cc1C | 117
O=C1NC2(O)C(=O)c3ccccc3C2(O)N1c1ccccc1 (stereo not drawn) | 106
CC1CCN(CCNC(=O)c2nc(-c3ccc(S(=O)(=O)N4CCC(C)CC4)cc3)no2)CC1 | 100
COc1cccc(C2(O)CC(C(F)(F)F)=NN2C(=O)c2cccnc2)c1 (stereo not drawn) | 108
CCCn1nnc(NCc2ccc(-c3ccc(Cl)cc3)o2)n1 | 104
O=C1OC(OC2CCCCC2)(c2ccccc2)c2ccccc21 (stereo not drawn) | 107
CCN(CC)c1ncnc2c1cnn2-c1cc(C)cc(C)c1 | 103
CCCCC(C(=O)Nc1cccc([N+](=O)[O-])c1)N1C(=O)C2C3c4ccccc4C(c4ccccc43)C2C1=O (stereo not drawn) | 112
Cc1cccc(C(=O)Nc2c3c(nn2C(C)(C)C)CS(=O)(=O)C3)c1 | 98
COc1ccc(C2CC(=O)C3=C(C2)Nc2ccccc2N(C(=O)C(C)C)C3c2cccc(OC)c2)cc1 (stereo not drawn) | 101
NS(=O)(=O)c1ccc2nc(NC(=O)CSc3ccccc3)sc2c1 | 104
CN(C)c1ccc(/C=N/NC(=O)c2nnn(-c3nonc3N)c2CN2CCCCCC2)cc1 | 104
CCOC(=O)c1ccc(-n2c(=S)sc3c(=O)n(CC4CCCO4)c(SCC#N)nc32)cc1 (stereo not drawn) | 119
Cc1nn2c(S(=O)(=O)NC3CCCCCC3)c(C)nc2s1 | 97
CC(C)C12CN3CC(C(C)C)(CN(C1)C3c1cccc([N+](=O)[O-])c1)C2=O (stereo not drawn) | 118
COc1ccc(OC)c(NC(=O)CSc2nc3ccccc3c(=O)[nH]2)c1 | 98
COC(=O)c1ccc(C(=O)NCCc2c(C)[nH]c3ccc(OCc4ccccc4)cc23)cc1 | 104
Cc1c(Cl)cccc1NC(=O)c1sc2nc3c(c(-c4ccco4)c2c1N)CCC3 | 104
Cc1ccc(CNC(=O)CSc2nc(NCC3CCCO3)c3ccccc3n2)cc1 (stereo not drawn) | 107
N#CC1=CN(c2ccc(Cl)cc2Cl)c2ccc(F)cc2S1(=O)=O | 109
COc1ccc(-c2cc(N3CCN(C(=O)Nc4cc(C)cc(C)c4)CC3)ncn2)cc1 | 102
O=C(c1ccccc1)N1c2ccccc2-c2ccccc2S1(=O)=O | 103
CCOc1ccc(NC(=O)NCc2nnc(C(=O)Nc3ccccc3)s2)cc1 | 108
Cn1cnc2cc(-c3noc(CNC(=O)c4ccccc4)n3)ccc21 | 106
COc1ccccc1C1Nc2cccc3cccc(c23)N1 | 113
Cc1sc(-c2cc(C(F)(F)F)on2)cc1S(=O)(=O)N1CCCCC1 | 103
Cn1cnc(S(=O)(=O)N2CCC(c3nnc(C(=O)Nc4ccc(F)cc4F)s3)CC2)c1 | 99
COc1ccc(NC(=O)c2cc3cc(OC)ccc3oc2=Nc2ccc(C(=O)O)cc2)cc1 | 104
COc1ccc(Nc2ncnc3c2cnn3-c2ccc(Cl)cc2)c(OC)c1 | 103
CCN1CC=C2C(C#N)=C(N)C(C#N)(C#N)C(c3ccccc3OC)C2C1 (stereo not drawn) | 118
Cn1nc(COCc2ccc(F)cc2Cl)c2c1CCN(S(=O)(=O)c1ccc(F)cc1F)C2 | 105
COc1ccccc1CNC(=O)CCc1nc(CS(=O)(=O)c2ccccc2)no1 | 102
O=C(N/N=C/c1cn(-c2ccccc2)nc1-c1ccccc1)c1ccc(Cl)cc1 | 103
C#CCOc1c(Br)cc(/C=C2/NC(=O)NC2=O)cc1OCC | 118
CCc1ccc(C(=O)NC(Cc2c[nH]c3ccccc23)C(=O)OCC(=O)c2ccc(OC)cc2)cc1 (stereo not drawn) | 104
CCOC(=O)CC(=O)CSc1nc2c(sc(=S)n2-c2ccccc2)c(=O)n1Cc1ccco1 | 117
CCn1nnc2c(N3CCc4ccccc43)ncnc21 | 97
Cc1ccccc1C(=O)Nc1cc(F)c2nc(N3CCCC3)ccc2c1 | 102
O=C(CN1C(=O)COc2ccccc21)N1CCSCC1 | 104
COc1ccc(C2N(c3ccc(Cl)cc3)CCN2c2ccc(Cl)cc2)cc1[N+](=O)[O-] | 116
COc1ccc(C(c2c(C)[nH]n(-c3ccccc3)c2=O)c2c(C)[nH]n(-c3ccccc3)c2=O)cc1OC | 76*
Cc1ccc(N(CC(O)Cn2c3ccc(Cl)cc3c3cc(Cl)ccc32)S(=O)(=O)c2ccc(C)cc2)cc1 (stereo not drawn) | 107
CC1=C(C#Cc2ccccc2)c2ccccc2OC1(NC1CCCCC1)c1ccccc1 (stereo not drawn) | 107
O=C(COc1ccccc1)Nc1cccc(OCc2cc(=O)n3ccccc3n2)c1 | 105
Cc1ccc(C)c(N2CCN(c3ncc(NC(=O)c4ccc(Cl)cc4)cc3C(=O)O)CC2)c1 | 110
CCN(CC)C1N(C(=O)c2ccc(Br)cc2)N=C2c3ccccc3S(=O)(=O)N21 (stereo not drawn) | 105
CCOC(=O)c1cnn(-c2ccc(C(=O)NCC3CCCO3)cc2)c1N (stereo not drawn) | 106

Some of these compounds in order of length of the SMILES, rising:
smiles | GIV-Gai inh
CCn1nnc2c(N3CCc4ccccc43)ncnc21 | 97
CC(C)C12CN3CC(C(C)C)(CN(C1)C3c1cccc([N+](=O)[O-])c1)C2=O (stereo not drawn) | 118
COc1ccc(C2CC(=O)C3=C(C2)Nc2ccccc2N(C(=O)C(C)C)C3c2cccc(OC)c2)cc1 (stereo not drawn) | 101
COC(=O)C1=C(C(=O)OC)SC2(S1)C(C(=O)OC)=C(C(=O)OC)SC1=C2c2cccc(OC)c2N(C(=O)c2ccc(F)cc2)C1(C)C | 105

Part of the list above, set out differently.
| GIV-Gai inh | SMILES |
| --- | --- |
| 76* | COc1ccc(C(c2c(C)[nH]n(-c3ccccc3)c2=O)c2c(C)[nH]n(-c3ccccc3)c2=O)cc1OC |
| 107 | Cc1ccc(N(CC(O)Cn2c3ccc(Cl)cc3c3cc(Cl)ccc32)S(=O)(=O)c2ccc(C)cc2)cc1 (stereo not drawn) |

Additional records follow:
SMILES	GIV-Gai inh
CCOc1ccc(CC(=O)N2CCCC(c3nc(-c4ccc(NC(C)=O)cc4)no3)C2)cc1OCC (stereo not drawn)	106
CCOC(=O)c1cnn(-c2ccc(C(=O)N3CCN(c4ccc(Cl)cc4)CC3)cc2)c1N	108
COC(=O)c1cc(Nc2ncnc3c2cnn3-c2ccccc2)cc(C(=O)OC)c1	108
NS(=O)(=O)c1ccc(CCNC(=O)Cn2c(=O)[nH]c3ccccc3c2=O)cc1	100
O=c1n(CCc2ccccc2)nc2c(S(=O)(=O)N3CCCCCC3)cccn12	100
CCOC(=O)c1sc2nc(SCC(=O)NCc3ccco3)n(Cc3ccccc3)c(=O)c2c1C	114
O=[N+]([O-])c1ccc2c(c1)C(N1CCOCC1)/C(=C\COc1ccc(F)cc1)O2 (stereo not drawn)	114
CC1(C)OC2OC(C(=O)Nc3ccc(OC(F)(F)F)cc3)C3OC(C)(C)OC3C2O1 (stereo not drawn)	103
O=C(Cn1c(=O)n(C2CC2)c(=O)c2nscc21)NCc1cccs1	104
CC1=C(C(=O)Nc2ccccc2)C(c2ccncc2)C(C#N)=C(SCC(=O)Nc2cccc(C(F)(F)F)c2)N1 (stereo not drawn)	101
O=C1CCC(=O)N1CC(=O)N1c2ccccc2Sc2ccccc21	109
Cc1ccc(C2=N/C(=C\c3c(C)nn(-c4ccccc4)c3Cl)C(=O)O2)cc1[N+](=O)[O-]	102

Some of the entries above in another layout.
O=c1n(CCc2ccccc2)nc2c(S(=O)(=O)N3CCCCCC3)cccn12
  GIV-Gai inh = 100
CCOC(=O)c1sc2nc(SCC(=O)NCc3ccco3)n(Cc3ccccc3)c(=O)c2c1C
  GIV-Gai inh = 114

Next section:
SMILES	GIV-Gai inh
c1ccc(-c2nnc(N3CCCC3)c3ccccc23)cc1	99
Cc1ccc(Cl)cc1NC(=O)C1Oc2ccccc2NC1=O (stereo not drawn)	94
O=S(=O)(c1ccc(Cl)s1)N1CCc2nc[nH]c2C1	102
CCN(CC)C(=O)CSc1nc2ccccc2n1S(=O)(=O)c1ccc(Br)cc1	118
O=C(C1=CN(c2ccc3c(c2)OCCO3)c2cc(Cl)ccc2S1(=O)=O)N1CCCC1	96
O=C(Nc1ccc(Cc2ccncc2)cc1)C1CCC(N2C(=O)C3CC=CCC3C2=O)CC1 (stereo not drawn)	111
O=C(Nc1cccc(Br)c1)Nc1c(-c2ccccc2)[nH]c2ccccc12	105
CCn1c(CCc2cccc(NS(=O)(=O)c3ccc4c(c3)OCCO4)c2)nc2ccccc21	99
COc1ccc(C(=O)OCCN(C2=NS(=O)(=O)c3ccccc32)c2ccccc2)cc1OC	118
COc1ccc(CCNc2nc(SCc3cc(=O)n4cc(Cl)ccc4n3)nc3ccccc23)cc1OC	107
CC1(C)Nc2ccccc2-c2c1sn(C1CCCCC1)c2=S	106
NC(=O)CSc1nnc(-c2ccccc2)c(-c2ccccc2)n1	121
CCOC(=O)c1c(C)[nH]c(C)c1S(=O)(=O)N1CCC(C(=O)Nc2cccc(Br)c2)CC1	105
N#CC1(C#N)[C@@H]2c3ccccc3C=CN2[C@@H](C(=O)c2ccc(F)cc2)[C@@H]1c1cccc(F)c1	123
CC(C)N1CCN(Cc2nc(-c3ccc(N4CCSCC4)nc3)no2)CC1	123
O=C(NCC1CCCO1)c1ccc2c(=O)n(Cc3ccco3)c(SCc3cc(=O)n4ccccc4n3)nc2c1 (stereo not drawn)	106
O=C(NCC1CCCO1)c1cc(S(=O)(=O)N2CCOCC2)ccc1Sc1ccc(Br)cc1 (stereo not drawn)	102
CCCN(CCC)S(=O)(=O)c1ccc(C(=O)Nc2ccc3c4c(cccc24)C(=O)N3CC)cc1	130
CCOC(=O)N1CC=C2C(C#N)=C(N)C(C#N)(C#N)C(c3ccccc3C(F)(F)F)C2C1 (stereo not drawn)	117
Cc1ccc(-c2noc3ncnc(N4CCN(C)CC4)c23)cc1	102
CCCS(=O)(=O)c1nc2ccc(NS(=O)(=O)c3ccc(F)c(F)c3)cc2s1	100
CC1C=CCC2C(=O)N(c3cccc(C(=O)N4CCN(c5ccccc5)CC4)c3)C(=O)C12 (stereo not drawn)	114
Cc1ccccc1N/C(SCc1ccccc1F)=C(/C#N)C(=O)NCc1cccs1	106
O=C(CSc1nnc2c3ccccc3nc(-c3ccccc3)n12)N1CCc2ccccc21	96
Cn1cnc2cc(-c3noc(-c4cccc(Br)c4)n3)ccc21	104
COc1ccc2c(c1)-c1c(ssc1=S)C(C)(C)N2C(=O)c1ccccc1F	110
CCOc1ccccc1-n1c(N)c(C(=O)Nc2ccccc2)sc1=S	108
CCc1ccc(S(=O)(=O)N2CCCC(C)(C(=O)NCc3ccc(F)cc3)C2)cc1 (stereo not drawn)	103
CCSc1nnc2n(-c3ccccc3OC)c(=O)c3c(n12)-c1ccccc1CC31CCCCC1	104
CCOC(=O)c1[nH]c(C)c(CN(Cc2ccc(OC)cc2)S(=O)(=O)c2ccc(C(C)C)cc2)c1C	104
O=S(=O)(Nc1ccc2nncn2n1)c1ccc(Cl)cc1	114
O=S(=O)(c1cccn2c(SCc3cccc(F)c3)nnc12)N1CCCCC1	104
CCOC(=O)C1=C(C(=O)OCC)SC(=C2C(=S)C(C)(C)N(C(=O)c3ccc(C(C)(C)C)cc3)c3ccc(OC)cc32)S1	107
CCOC(=O)C1CCCN(c2ncc(S(=O)(=O)c3ccccc3)c(N)n2)C1 (stereo not drawn)	107
CCOC(=O)c1c(C)n(S(=O)(=O)c2ccc(OCC)cc2)c2ccc(NS(=O)(=O)c3ccc(OCC)cc3)cc12	112
CCOC(=O)c1ccc(NC(=O)CSc2nnc(NC(=O)c3c(F)cccc3F)s2)cc1	107

Compound activity: PubChem, ICCB-Longwood Screening Facility, Harvard Medical School
